UUG fidelity – modulators of start codon recognition fidelity in yeast | S. cerevisiae UUG-firefly luciferase reporter, luminescence/redox ratio | activity score, % at 18.7 µM | actives 0.13% (n = 350,000) | AID 602363;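 active = replicate mean at a twofold rise or more, about +100% in these data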;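 also: firefly luciferase made from a UUG start codon reports start codon fidelity; reporter light over untreated wells divided by growth signal over untreated wells; some hits fall short of that in this replicate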
CSC inhib – blocks cancer stem cells. actives 1.1% (n = 300,000). cancer stem cell-like cells viability, luminescence. inhibition, % at 7.5 µM;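 active = mean at 75% or more and at least half the replicates too; inconclusive = mean and replicates disagree; tested in HMLE shEcad cells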;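 also: 0% = median of negative and 100% = median of positive control wells; the first replicate is given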
HIV Env fusion – blocks HIV Env-driven cell-cell fusion; HeLa-JRFL Env/CEM21 cell fusion, luciferase; inhibition, % at 12.3 µM; actives 1.1% (n = 360,000);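 active = mean replicate inhibition score of at least 50 and every replicate individually at or above 50; inconclusive = only one of the two criteria met; inactive = mean below 50 and not all replicates reaching 50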;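 also: 0% = plate neutral controls and 100% = maraviroc near 300 nM; one replicate is shown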
MT1-MMP act inh – blocks activation of human MT1-MMP; P50281; HT1080 RFP-PRO-GFP cells, GFP/RFP ratio fluorescence, overnight; percent of plate control window, DMSO zero; GFP/RFP ratio change, % at 20 µM; actives 0.061% (n = 360,000); AID 651647;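 active = GFP/RFP ratio change of at least 30% with cell ATP level not reduced by more than half and red fluorescence within 50% of control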; also: strong numbers were not always called active
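Read-out: GFP/RFP fluorescence ratio; Test system: RFP-PRO-GFP reporter HT1080 cells; Compound dosing: single-point 20 µM compound, 1% DMSO; Times: overnight compound exposure at 37 °C.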
eIF4H inh – inhibitors of RNA binding by human eIF4H; eIF4H fluorescence polarization binding assay; inhibition, % at 35 µM; actives 0.94% (n = 290,000);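 active = 50% or more with normal probe brightness, or confirmed in later tests; inconclusive = above 50% with abnormal brightness, or retests that disagree; inactive = below 50% or failed in later tests; about a fifth of its hits are not listed in these tables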;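 also: calls also rest on retests at 20 µM and on dose response follow-up; 0% = protein and probe with vehicle and 100% = probe without protein; strong numbers were not always called active; many hits fall short of the cut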
PABP FP inh – PABP-poly(A) binding inhibition. P11940. PABP-poly(A) RNA binding, fluorescence polarization. inhibition, % at 35 µM. actives 1% (n = 290,000). AID 2014;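 active = 50% or more with normal probe brightness, or confirmed in later tests; inconclusive = above 50% with abnormal brightness, or retests that disagree; inactive = below 50% or failed in later tests; about a fifth of its hits are not listed in these tables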;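 also: calls also rest on retests at 20 µM and on dose response follow-up; controls were probe without protein and protein plus probe with vehicle; some compounds called inactive have numbers as strong as hits; many hits fall short of the cut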
Target sequence (P11940 whole entry, looked up): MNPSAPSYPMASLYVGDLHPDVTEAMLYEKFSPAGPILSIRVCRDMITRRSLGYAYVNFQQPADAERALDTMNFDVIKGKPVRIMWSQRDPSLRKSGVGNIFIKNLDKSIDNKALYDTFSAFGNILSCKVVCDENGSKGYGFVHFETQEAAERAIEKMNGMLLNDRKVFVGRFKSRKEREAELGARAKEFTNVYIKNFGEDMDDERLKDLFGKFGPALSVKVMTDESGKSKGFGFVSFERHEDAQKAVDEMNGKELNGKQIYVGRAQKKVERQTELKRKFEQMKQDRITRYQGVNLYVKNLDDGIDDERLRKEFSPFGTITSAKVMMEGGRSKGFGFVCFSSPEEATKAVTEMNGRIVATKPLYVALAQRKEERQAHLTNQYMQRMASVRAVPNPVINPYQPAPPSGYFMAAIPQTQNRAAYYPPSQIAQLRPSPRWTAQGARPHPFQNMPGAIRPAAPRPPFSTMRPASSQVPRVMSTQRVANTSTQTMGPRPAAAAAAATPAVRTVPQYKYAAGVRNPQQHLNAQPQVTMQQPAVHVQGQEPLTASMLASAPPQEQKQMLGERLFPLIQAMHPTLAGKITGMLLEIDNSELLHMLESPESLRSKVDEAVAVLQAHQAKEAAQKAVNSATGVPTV
Rce1 inh – inhibitors of yeast Ras-converting enzyme; Q03530; yeast membranes, quenched prenylated peptide cleavage fluorescence; calls only; actives 0.27% (n = 290,000); AID 2563;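 active = fall in fluorescence gain of 50% or more versus controls, with final raw signal at or below 3038400; inconclusive = same 50% fall but final raw signal above 3038400; inactive = fall in fluorescence gain under 50%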;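 also: plate controls were neutral control wells for no effect and wells lacking membranes for full effect; tested at 10 µM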
eIF4H inh retest – also measured in eIF4H inh; calls as there; inhibition, %; compound at 20 µM; confirmation average;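 mean of two retest wells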
PABP FP inh retest – second read-out of PABP FP inh, no call of its own (marks repeat the call); inhibition, %; compound at 20 µM; confirmation repeats;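 mean of two retest wells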
MT1-MMP act inh RFP – recorded beside MT1-MMP act inh, whose call it bears; RFP signal change, %; measured here: RFP expression control read;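 0 = vehicle wells; hits needed this value within 50% of zero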
Active calls of the source: *; i = inactive; ? = inconclusive; / = not tested or not shown; & = joins results of further samples. Only part of the results is shown; rates above refer to the full screens.

SMILES | UUG fidelity | CSC inhib | HIV Env fusion | MT1-MMP act inh | MT1-MMP act inh RFP | eIF4H inh | PABP FP inh | Rce1 inh | others
O=c1[nH]c(=O)n(-c2ccc(F)cc2)c(O)c1C=NCCN1CCCCC1 | / | 1.4 | 4.4 | 3.1 | 1.4 | -8.2 | -4.7 | i
CCCCOC(=O)C1=C(N)OC2=C(C(=O)CCC2)[C@]12C(=O)Nc1ccccc12 | 125.3* | 4.5 | / | -10.2 | 0.0 | -19.5 | 0.2 | /
N#CCCn1cc(C=C2C(=O)NC(=O)NC2=O)c(-c2ccccc2)n1 | / | -4.5 | 11.9 | 0.7 | 2.5 | -12.2 | -6.8 | i
CCCNC(=O)N1[C@H]2CC[C@@H]1C(C(=O)OC)=C(c1c(C)noc1C)C2 | -6.7 | -16.2 | 10.9 | 1.8 | 4.8 | / | / | /
CCN(CC)CCN=Cc1c(O)n(Cc2ccccc2)c(=O)[nH]c1=O | -6.4&-9.3 | 2.9&6.8 | -8.5&-40.9 | -4.2&-18.2 | 3.3&0.4 | 21.6&-6.7 | 21.8&-15.1 | i
COc1ccccc1N1C(=O)NC(=O)/C(=C/c2ccc([N+](=O)[O-])s2)C1=O | / | 8.8 | -0.4 | / | / | 51.3* | 31.9* | i | eIF4H inh retest=61.2*;PABP FP inh retest=52.0*
Nc1ccc(C(=O)N/N=C2/CN3CCC2CC3)cc1 | -12.7 | -12.8 | / | 4.6 | 7.1 | 9.2 | 6.9 | i
FC(F)(F)c1ccc(CN2CCNCC2)cc1 | / | -7.6 | 5.0 | -2.7 | 1.1 | 5.6 | -6.1 | i
O=C(N/N=C/c1c(O)n(Cc2ccccc2)c(=O)[nH]c1=O)c1ccccc1 | -11.9 | -13.3 | 11.1 | 4.2 | 7.2 | 74.3* | 15.0* | i | eIF4H inh retest=67.6*;PABP FP inh retest=81.4*
O=C(Nc1ccc(Cl)cc1)Nc1nccs1 | -17.8 | 48.2 | -102.1 | 5.2 | -12.2 | -7.5 | -7.4 | i
COc1ccc(C2SCC(=O)Nc3c2c(=O)[nH]n3C2CCCCCC2)cc1OC (configuration not stated) | -11.9 | -1.7 | 1.6 | 12.6 | 1.0 | -10.9 | 4.2 | i
CCOc1cccc(N2C(=O)CC(=O)NC2=O)c1 | -3.9 | -14.6 | 6.8 | -22.2 | 3.0 | 32.4 | 2.5 | i
O=C1NC(=O)C(CCc2ccncc2)(CCc2ccncc2)C(=O)N1CCc1ccc(F)cc1 | -17.5 | -9.0 | 4.3 | -13.6 | -2.6 | -2.2 | -18.5 | i
CC1CCC2C(C)C(=O)OC3OC4(C)CCC1C32OO4 (configuration not stated) | 14.4 | 11.6 | -41.3 | -5.8 | -6.2 | -11.1 | -5.0 | i
COc1ccc(N/N=C/c2c(O)n(-c3cccc(C)c3)c(=O)[nH]c2=O)cc1 | -9.9 | 95.2* | 12.3 | -9.6 | 8.0 | 53.5 | 54.4 | i | eIF4H inh retest=-6.5;PABP FP inh retest=-1.3
C=CCN1CC[C@]23c4c5ccc(O)c4O[C@H]2/C(=N/NC(=O)c2ccccc2)CC[C@@]3(O)[C@H]1C5 | 5.2 | -14.1 | 11.9 | 1.4 | 3.1 | / | / | i
Cc1cnc(-n2c(=S)[nH]c3ccccc3c2=O)s1 | -21.6 | / | 11.8 | 4.2 | 2.2 | / | / | /
CC1(C)N2CC3([N+](=O)[O-])CN1CC([N+](=O)[O-])(C2)C3 | / | -11.3 | -1.2 | -2.7 | 1.4 | 1.3 | 2.8 | i
CCOC(=O)c1ccc(NC(=O)N2C[C@@H]3C[C@@H](C2)c2cccc(=O)n2C3)cc1 | 0.7 | -12.7 | / | -2.0 | 2.2 | 1.6 | -12.8 | i
COc1ccc(S(=O)(=O)N2CCOCC2)cc1NC(=O)COC(=O)Cc1ccccc1 | -4.6 | -6.2 | / | -1.1 | 0.8 | / | / | /
CCN1CCN(C(=O)Cc2ccccc2OC)CC1 | / | -6.2 | -0.6 | -0.1 | 0.9 | -5.3 | -10.1 | i
COc1ccc(CN2CCN(Cc3ccccc3)CC2)c(OC)c1 | 2.0 | -13.5 | -8.5 | -1.5 | -1.4 | 5.5 | -7.1 | i
C=CCN1C(=O)NC(=O)C(CCc2ccncc2)(CCc2ccncc2)C1=O | / | -13.2 | 19.4 | -2.7 | 0.5 | 6.2 | 3.3 | i
CC(C)(C)C(=O)c1cn(CC(=O)NCc2ccco2)c2ccccc12 | / | -8.7 | -3.3 | -2.4 | 0.3 | -10.4 | 57.9* | i
Cn1c(O)c(C(=Nc2ccccc2)SCc2ccccc2Cl)c(=O)n(C)c1=O | -6.9 | -6.1 | 11.3 | / | / | 7.6 | 3.3 | i
CC(=NCc1cccnc1)c1c(O)n(C2CCCCC2)c(=O)[nH]c1=O | -10.8 | 2.7 | -21.5 | 14.7 | 3.1 | 2.8 | -1.3 | i
CN(C(=O)CNC(=O)OCc1ccccc1)c1ccc(Br)cc1C(=O)c1ccccc1Cl | / | 52.2 | -48.6 | -1.8 | -10.5 | 0.1 | 3.4 | i
CN1CCc2nc3sc(C(=O)NC4CC4)c(N)c3cc2C1 | / | -15.9 | -8.9 | -2.2 | 4.1 | ? | -0.5 | i
COc1cc(O)c(C(=O)O)c(-c2cc(O)c(O)cc2C)c1 | -26.6 | -5.5 | / | 1.3 | 2.1 | 7.8 | 25.3 | i
CCC1=Nc2cc(C(=O)N3CCC4(CC3)OCCO4)ccc2Sc2ccccc21 | / | -5.6 | 0.6 | 0.5 | -0.5 | -21.7 | 3.0 | i
Cn1c(O)c(C=NC2CC(C)(C)NC(C)(C)C2)c(=O)n(C)c1=O | -21.9 | -3.7 | / | 2.1 | 0.9 | -5.2 | 1.7 | i
C=CCn1c(O)c(C(C)=Nc2cc(OC)ccc2OC)c(=O)[nH]c1=O | 2.5 | -6.7 | / | 14.4 | 9.0 | 3.6 | 6.3 | i
O=C(CNC1CCCCC1)N1CCC2(CC1)OCCO2 | 20.0 | -14.1 | -59.9 | -4.5 | -1.7 | -12.9 | 12.0 | i
O=C(O)Cc1cnc[nH]1 | 5.8 | 2.2 | 15.7 | -2.0 | 1.2 | / | / | i
CCCCC(C)C(OC(=O)CC(CC(=O)O)C(=O)O)C(CC(C)CC(O)CCCCC(O)CC(O)C(C)N)OC(=O)CC(CC(=O)O)C(=O)O (configuration not stated) | 5.8 | -13.7 | / | -0.1 | 4.7 | 23.5 | -13.1 | /
C1CNC2NCCNC2N1 (configuration not stated) | -5.6 | / | -14.5 | 7.4 | 5.8 | 2.5 | 14.4 | i
Brc1ccc2[nH]cc(C=NN3CCCCCC3)c2c1 | -16.0 | / | 21.9 | -3.7 | -0.7 | / | / | /
Cc1ccc(-n2c(C)cc(/C=C3/C(=O)NC(=O)N(C)C3=O)c2C)cc1 | 1.1 | / | 17.4 | -2.4 | -0.9 | ? | 2.8 | i
COc1cc(C)c(-c2nc(CN3C[C@@H]4C[C@@H](C3)c3cccc(=O)n3C4)c(C)o2)cc1C | 0.0 | 3.3 | 11.5 | 0.5 | -0.7 | -6.1 | 0.6 | i
COC(=O)C1=C(c2cccc(OCc3ccccc3)c2)C[C@@H]2CC[C@H]1N2C(=O)NCc1cccc(C(F)(F)F)c1 | -14.1 | 33.7 | 6.8 | -5.1 | -14.5 | / | / | /
CCCCN1C(=O)NC(=O)/C(=C/c2cnc(SC)nc2)C1=O | 13.4 | -9.8 | / | 0.3 | 1.7 | 0.7 | 5.3 | i
Cc1cc(OCC(=O)N2CCN(CC(=O)N3CCOCC3)CC2)c(C(C)C)cc1Cl | 2.3 | -2.7 | 5.7 | 0.2 | -1.5 | / | / | /
O=C(COc1ccccc1)c1cn(Cc2ccccc2)c2ccccc12 | / | 54.1 | -9.2 | -5.6 | -1.9 | 129.8 | 60.8 | i | eIF4H inh retest=8.8;PABP FP inh retest=2.3
CC1CN2C(=O)C1(c1ccccc1)C(=O)NC2=S (configuration not stated) | 15.9 | / | -7.8 | -3.5 | -0.3 | / | / | /
O=P(C(Cl)Cl)(N1CCCCC1)N1CCCCC1 | -4.7 | -13.4 | -63.3 | 1.9 | -0.5 | -6.2 | -1.3 | i
O=c1[nH]c(=O)n(-c2ccc(Cl)cc2)c(O)c1C=Nc1ccc(S(=O)(=O)Nc2nccs2)cc1 | -2.5 | -5.6 | -14.3 | -68.0 | 7.5 | ? | -1.5 | i
O=C(COc1ccccc1)N1CCN(CC(O)COc2ccccc2)CC1 (configuration not stated) | -4.7 | -2.6 | -92.1 | 4.7 | 10.0 | 1.9 | 3.7 | i
Cc1cccn2c(=O)c3c(nc12)N1CCCCCC1C1(C3)C(=O)N(C)C(=O)N(C)C1=O (configuration not stated) | 2.2 | -7.4 | -10.4 | -1.6 | -4.7 | -3.5 | 9.2 | i
COC(=O)C(Cc1ccc(N(CCCl)CCCl)cc1)N=Cc1ccccc1O (configuration not stated) | -2.8 | 83.0* | 50.9 | 1.4 | 2.6 | -9.8 | 8.9 | i
ClCCN(CCCl)c1ccc(-n2cnc3c(Cl)ncnc32)cc1 | 5.2 | / | 11.0 | 3.9 | 0.4 | / | / | /
O=C(N/N=C/c1c(O)n(CCc2ccccc2)c(=O)[nH]c1=O)c1ccccc1O | / | -2.3 | 12.6 | -23.1 | 4.4 | 33.6 | 1.7 | i
O=C1C2(Cl)C3(Cl)C4(Cl)C(Cl)(Cl)C5(Cl)C3(Cl)C1(Cl)C5(Cl)C24Cl (configuration not stated) | -13.9 | 101.3* | / | -5.0 | -6.3 | / | / | /
NNC(=O)CN1C(=O)CN=C(c2ccccc2)c2cc(Br)ccc21 | / | -13.1 | -2.4 | -3.3 | 0.8 | -1.7 | -6.7 | i
C[C@]12CCC3C(CC[C@H]4[C@H](O)[C@H](O)CC[C@]34C)C1CCC2=O (some centres not stated) | -4.9 | / | -8.4 | 0.1 | 0.2 | / | / | /
CCOc1cc(C2C(C#N)=C(N)Oc3c2c(=O)oc2ccccc32)ccc1OC(=O)c1cccs1 (configuration not stated) | / | -1.3 | / | 0.4 | 7.1 | -2.1 | -6.9 | i
O=P(N[C@@H](c1ccccc1)[C@@H]1C[C@H]1CO)(c1ccccc1)c1ccccc1 | -40.5 | 13.6 | -38.5 | 0.8 | 5.9 | 3.8 | 8.4 | i
O=C1C2CCCN2C(c2ccc(Cl)cc2)N1c1ccccn1 (configuration not stated) | -7.5 | 0.0 | 15.9 | -2.9 | 3.3 | -0.7 | 7.5 | i
CCN1CCN(S(=O)(=O)c2cnc(Cl)c(Br)c2)CC1 | / | / | -1.6 | -2.8 | -3.6 | -3.1 | 1.3 | i
NC(N)=N/N=C/c1ccc(N(c2ccccc2)c2ccccc2)cc1 | -21.0 | 110.4* | 8.9 | -28.4 | -20.6 | -13.4 | -18.6 | i
C=CCOC(=O)C1=C(C)OC(N)=C(C#N)[C@@]12C(=O)N(CC(N)=O)c1ccccc12 | -12.4 | -5.7 | / | 0.8 | 3.2 | 5.3 | 5.4 | i
C/C(=N\N1CCCCCC1)c1c(O)n(-c2ccccc2)c(=O)[nH]c1=O | / | -12.9 | 13.2 | 1.9 | -1.2 | 2.6 | -12.7 | i
